High-throughput results from PubChem.
rRNA inh HTS: reduced GFP signal of wild-type E. coli, primary screen, bacterial rRNA inhibitor project, GFP/RFP fluorescence, OD600, single point. E. coli WT GFP vs humanized-ribosome RFP mutants, 24 h; active compounds read low; DMSO median 0, no signal -100. GFP signal change (wild-type ribosome), % (test concentration not listed). 350,000 tested, 1.6% active. AID 720706, 2013;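 active = significant combined selectivity score with lowered wild-type GFP, culture density cut under 30%, mutant RFP and density less affected; inactive = any of these conditions unmet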; also: one replicate is shown; some compounds called inactive have numbers as strong as hits
FGF22 binding: binders of human FGF22 protein, primary screen, FGF22 synaptogenesis inhibitor project, biophysical, thermal shift, single point. Fibroblast growth factor 22 (Homo sapiens), Q9HCT0. recombinant FGF22 thermal shift, SYPRO orange fluorescence; percent of sucrose octasulfate shift, DMSO zero. calls only at 9.99 µM. 340,000 tested, 1.5% active;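 active = melting point raised past a set limit in the mean and every replicate; three in four hits are not shown here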
Target sequence (Q9HCT0 whole entry, looked up): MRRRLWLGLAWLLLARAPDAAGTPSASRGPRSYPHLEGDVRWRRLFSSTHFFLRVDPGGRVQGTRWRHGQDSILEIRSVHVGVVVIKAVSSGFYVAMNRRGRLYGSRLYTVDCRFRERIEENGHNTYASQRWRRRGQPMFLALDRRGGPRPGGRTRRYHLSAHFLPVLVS
rRNA inh HTS OD600: second read-out of rRNA inh HTS, no call of its own (marks repeat the call); OD600 change, %; measured here: OD600 growth;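 optical density of the mix in the first replicate; 0 = DMSO median and -100 = no signal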
rRNA inh HTS RFP: recorded beside rRNA inh HTS, whose call it bears; RFP signal change, %; measured here: RFP humanized mutant strains;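 first replicate; 0 = DMSO median and -100 = no signal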
* marks the source's active call; other numbers are inactive results. This is a subset (hit frequency here may not be typical).

Results for COc1cccc(C(=O)Nc2ccc3c(c2)C(=O)N(C)[C@@H]2CC[C@@H](CC(=O)NCc4ccc(F)cc4)O[C@H]2CO3)c1 ?
rRNA inh HTS: -4; FGF22 binding: inactive; rRNA inh HTS OD600: -4; rRNA inh HTS RFP: 1.8

How did CCS(=O)(=O)N1CCC2(CC1)CN(C(=O)c1ccc(F)cc1)[C@@H](CO)c1c2c2ccc(OC)cc2n1C do in these assays?
rRNA inh HTS: 0; FGF22 binding: inactive; rRNA inh HTS OD600: 0; rRNA inh HTS RFP: 1.2

How did C[C@H]1CN([C@@H](C)CO)C(=O)c2cc(NC(=O)Nc3ccc(C(F)(F)F)cc3)ccc2O[C@@H]1CN(C)S(=O)(=O)c1ccc(Cl)cc1 do in these assays?
rRNA inh HTS: 1; FGF22 binding: inactive; rRNA inh HTS OD600: -9; rRNA inh HTS RFP: -1.8

Results for CN1C(=O)c2cc(NC(=O)c3ccc(F)cc3)ccc2OC[C@H]2O[C@H](CC(=O)NC3CCC3)CC[C@H]21 ?
rRNA inh HTS: -2; FGF22 binding: inactive; rRNA inh HTS OD600: -4; rRNA inh HTS RFP: 0.9

What do the screens show for `COc1ccc(C#Cc2ccc([C@@H]3[C@@H](CO)N4CCCCN(C(=O)Nc5ccccc5)C[C@@H]34)cc2)cc1`?
rRNA inh HTS: -1; FGF22 binding: inactive; rRNA inh HTS OD600: 16; rRNA inh HTS RFP: -0.6

What do the screens show for `C[C@@H]1CN([C@@H](C)CO)S(=O)(=O)c2ccc(-c3ccccc3)cc2O[C@H]1CN(C)C(=O)C1CCCCC1`?
rRNA inh HTS: -11; FGF22 binding: inactive; rRNA inh HTS OD600: -40; rRNA inh HTS RFP: -0.1

How did COc1ccccc1NC(=O)N(C)C[C@@H]1Oc2ncc(C#CCN(C)C)cc2C(=O)N([C@@H](C)CO)C[C@H]1C do in these assays?
rRNA inh HTS: 2; FGF22 binding: inactive; rRNA inh HTS OD600: 5; rRNA inh HTS RFP: -1.6

Results for O=C(C1CCCC1)N1[C@@H](CO)[C@@H]2c3ccccc3N(S(=O)(=O)c3ccc(F)cc3)C[C@@H]21 ?
rRNA inh HTS: -7; FGF22 binding: inactive; rRNA inh HTS OD600: -17; rRNA inh HTS RFP: 1.6

How did C[C@@H]1CN([C@@H](C)CO)C(=O)c2cc(NC(=O)Nc3ccccc3)ccc2O[C@@H]1CN(C)Cc1ccc(C(=O)O)cc1 do in these assays?
rRNA inh HTS: 7; FGF22 binding: inactive; rRNA inh HTS OD600: 8; rRNA inh HTS RFP: -0.7

What do the screens show for `CO[C@H]1CN(C)C(=O)c2ccc(NS(=O)(=O)c3cccc(Cl)c3)cc2OC[C@@H](C)NC[C@H]1C`?
rRNA inh HTS: 4; FGF22 binding: inactive; rRNA inh HTS OD600: 5; rRNA inh HTS RFP: -1.2

What do the screens show for `C[C@@H]1CCCCO[C@H](CN(C)S(=O)(=O)c2cccs2)[C@H](C)CN([C@@H](C)CO)C(=O)c2cc(NS(=O)(=O)c3cn(C)cn3)ccc2O1`?
rRNA inh HTS: -7; FGF22 binding: inactive; rRNA inh HTS OD600: 2; rRNA inh HTS RFP: -2.7

How did CCCNC(=O)N1[C@@H](CO)[C@@H]2c3ccccc3N(C)C[C@@H]21 do in these assays?
rRNA inh HTS: 2; FGF22 binding: inactive; rRNA inh HTS OD600: 1; rRNA inh HTS RFP: 0.3

How did O=C(NCC[C@@H]1CC[C@@H](NC(=O)C2CCOCC2)[C@H](CO)O1)c1cc(Cl)cc(Cl)c1 do in these assays?
rRNA inh HTS: -3; FGF22 binding: inactive; rRNA inh HTS OD600: 4; rRNA inh HTS RFP: -1.0

What do the screens show for `CC(C)CC#Cc1ccc2c(c1)O[C@H](CN(C)C(=O)C1CCC1)[C@H](C)CN([C@@H](C)CO)S2(=O)=O`?
rRNA inh HTS: -8; FGF22 binding: inactive; rRNA inh HTS OD600: -21; rRNA inh HTS RFP: 17

How did O=C(N[C@H]1CC[C@@H](CCNC(=O)C2CCCCC2)O[C@@H]1CO)c1ccccn1 do in these assays?
rRNA inh HTS: 2; FGF22 binding: inactive; rRNA inh HTS OD600: 10; rRNA inh HTS RFP: 0.9

What do the screens show for `CC(C)CC#Cc1cnc2c(c1)C(=O)N([C@H](C)CO)C[C@@H](C)[C@H](CN(C)Cc1ccc3c(c1)OCO3)O2`?
rRNA inh HTS: 6; FGF22 binding: inactive; rRNA inh HTS OD600: 2; rRNA inh HTS RFP: 4.0

How did C[C@H]1CN([C@@H](C)CO)C(=O)c2cc(C#CCN(C)C)cnc2O[C@@H]1CN(C)Cc1ccc(-c2ccccc2)cc1 do in these assays?
rRNA inh HTS: 1; FGF22 binding: inactive; rRNA inh HTS OD600: -6; rRNA inh HTS RFP: 22

What do the screens show for `CN(C)CCCNC(=O)C[C@H]1C=C[C@H](NC(=O)c2ccccc2F)[C@@H](CO)O1`?
rRNA inh HTS: 1; FGF22 binding: inactive; rRNA inh HTS OD600: 5; rRNA inh HTS RFP: 0.9

How did COc1ccc(S(=O)(=O)N(C)C[C@H]2Oc3ccc(NC(=O)CCN4CCOCC4)cc3CC(=O)N([C@H](C)CO)C[C@H]2C)cc1 do in these assays?
rRNA inh HTS: 0; FGF22 binding: inactive; rRNA inh HTS OD600: 2; rRNA inh HTS RFP: -1.4

Results for Cc1noc(C)c1S(=O)(=O)Nc1ccc2c(c1)C(=O)N([C@@H](C)CO)C[C@@H](C)[C@@H](CN(C)S(=O)(=O)c1ccc(Cl)cc1)O2 ?
rRNA inh HTS: -4; FGF22 binding: inactive; rRNA inh HTS OD600: -11; rRNA inh HTS RFP: -0.7

What do the screens show for `O=C(C[C@@H]1CC[C@H]2[C@@H](COC[C@H](O)CN2Cc2cc(F)ccc2F)O1)NCc1ccc(Oc2ccccc2)cc1`?
rRNA inh HTS: -12; FGF22 binding: inactive; rRNA inh HTS OD600: -40; rRNA inh HTS RFP: 25

What do the screens show for `C[C@H]1CCCCO[C@H](CN(C)Cc2ccncc2)[C@@H](C)CN([C@@H](C)CO)C(=O)c2cc(NC(=O)C3CCCCC3)ccc2O1`?
rRNA inh HTS: -3; FGF22 binding: inactive; rRNA inh HTS OD600: -4; rRNA inh HTS RFP: -0.6

How did CO[C@@H]1CN(C)C(=O)c2ccc(NS(=O)(=O)c3cn(C)cn3)cc2OC[C@@H](C)N(Cc2ccc(C(F)(F)F)cc2)C[C@H]1C do in these assays?
rRNA inh HTS: -8; FGF22 binding: inactive; rRNA inh HTS OD600: -9; rRNA inh HTS RFP: 5.3

How did CCC(=O)N1CC[C@H]2[C@@H]1c1cc(-c3ccc(F)cc3)ccc1N(C)[C@H]2CO do in these assays?
rRNA inh HTS: 3; FGF22 binding: inactive; rRNA inh HTS OD600: -14; rRNA inh HTS RFP: -2.2

Results for COc1ccc2c3c(n(C)c2c1)[C@@H](CO)N(C(=O)C1CCCC1)CC31CCN(C(=O)Nc2cccc(F)c2)CC1 ?
rRNA inh HTS: 1; FGF22 binding: inactive; rRNA inh HTS OD600: 5; rRNA inh HTS RFP: -1.0

What do the screens show for `CN1C(=O)c2cc(NC(=O)c3cnccn3)ccc2OC[C@H]2O[C@H](CC(=O)NC3CCC3)CC[C@@H]21`?
rRNA inh HTS: -1; FGF22 binding: inactive; rRNA inh HTS OD600: -3; rRNA inh HTS RFP: -1.6

How did Cc1noc(C)c1NC(=O)Nc1ccc2c(c1)C(=O)N([C@@H](C)CO)C[C@H](C)[C@H](CN(C)S(=O)(=O)c1cccs1)O2 do in these assays?
rRNA inh HTS: 1; FGF22 binding: inactive; rRNA inh HTS OD600: 2; rRNA inh HTS RFP: -2.1

How did COc1cc(CN2CC3(CN(C(=O)NC(C)C)C3)c3c(n(C)c4cc(OC)ccc34)[C@@H]2CO)cc(OC)c1 do in these assays?
rRNA inh HTS: -3; FGF22 binding: inactive; rRNA inh HTS OD600: -13; rRNA inh HTS RFP: -1.9

Results for CCOC(=O)C(C)(C)CC#CCN(CC#Cc1ccccc1)S(=O)(=O)c1ccc(C)cc1 ?
rRNA inh HTS: 12; rRNA inh HTS OD600: 14; rRNA inh HTS RFP: 5.7

How did C[C@@H]1CN([C@@H](C)CO)C(=O)c2cc(NC(=O)Nc3ccccc3)ccc2O[C@@H](C)CCCCO[C@H]1CN(C)C(=O)c1ccccc1 do in these assays?
rRNA inh HTS: -1; FGF22 binding: inactive; rRNA inh HTS OD600: -6; rRNA inh HTS RFP: 0.5

Results for C[C@@H]1CN([C@H](C)CO)S(=O)(=O)c2ccc(-c3ccc(F)cc3)cc2O[C@@H]1CN(C)C(=O)C1CCCCC1 ?
rRNA inh HTS: -8; FGF22 binding: inactive; rRNA inh HTS OD600: -16; rRNA inh HTS RFP: 5.8

Results for CC(C)NC(=O)N(C)C[C@@H]1Oc2c(NC(=O)C3CCCCC3)cccc2C(=O)N([C@@H](C)CO)C[C@@H]1C ?
rRNA inh HTS: 2; FGF22 binding: inactive; rRNA inh HTS OD600: -2; rRNA inh HTS RFP: 0.0

How did CNC[C@H]1Oc2cc(C#Cc3cccnc3)ccc2S(=O)(=O)N([C@@H](C)CO)C[C@@H]1C do in these assays?
rRNA inh HTS: 1; FGF22 binding: inactive; rRNA inh HTS OD600: 9; rRNA inh HTS RFP: -0.1

Results for C[C@@H]1CN([C@H](C)CO)C(=O)Cc2cc(NC(=O)CCN3CCOCC3)ccc2O[C@H]1CN(C)Cc1ccc(C(F)(F)F)cc1 ?
rRNA inh HTS: -1; FGF22 binding: inactive; rRNA inh HTS OD600: 3; rRNA inh HTS RFP: 2.1

How did CC(=O)N(C)C[C@H]1Oc2cc(C#CCC(C)C)ccc2S(=O)(=O)N([C@H](C)CO)C[C@H]1C do in these assays?
rRNA inh HTS: 0; FGF22 binding: inactive; rRNA inh HTS OD600: -2; rRNA inh HTS RFP: 1.7

What do the screens show for `C[C@H](CO)N1C[C@H](C)[C@H](CN(C)CC2CCCCC2)OCCCC[C@H](C)Oc2ccc(NC(=O)Cc3ccccc3)cc2C1=O`?
rRNA inh HTS: -1; FGF22 binding: inactive; rRNA inh HTS OD600: 2; rRNA inh HTS RFP: 2.0

What do the screens show for `CN1C(=O)c2cc(NS(C)(=O)=O)ccc2OC[C@@H]2O[C@@H](CC(=O)N3CCOCC3)CC[C@@H]21`?
rRNA inh HTS: 3; FGF22 binding: inactive; rRNA inh HTS OD600: 6; rRNA inh HTS RFP: -1.8

What do the screens show for `CO[C@@H]1CC[C@@H]2CCN(C)C(=O)[C@@H](C)CN(C)C(=O)c3cc(C#N)ccc3OC[C@H]1O2`?
rRNA inh HTS: 7; FGF22 binding: inactive; rRNA inh HTS OD600: 14; rRNA inh HTS RFP: -2.8

What do the screens show for `CCCNC(=O)Nc1ccc2c(c1)C(=O)N(C)C[C@@H](OC)[C@@H](C)CN(C(=O)C1CCC1)[C@H](C)CO2`?
rRNA inh HTS: 0; FGF22 binding: inactive; rRNA inh HTS OD600: 3; rRNA inh HTS RFP: -2.1

Results for COc1ccc(S(=O)(=O)N(C)C[C@H]2OCCCC[C@H](C)Oc3ccc(NC(=O)CCC(F)(F)F)cc3C(=O)N([C@@H](C)CO)C[C@H]2C)cc1 ?
rRNA inh HTS: 0; FGF22 binding: inactive; rRNA inh HTS OD600: -5; rRNA inh HTS RFP: 0.9

What do the screens show for `CCCNC(=O)Nc1ccc2c(c1)C(=O)N(C)C[C@@H](OC)[C@H](C)CN(C(=O)C1CCCC1)[C@H](C)CO2`?
rRNA inh HTS: 0; FGF22 binding: inactive; rRNA inh HTS OD600: 8; rRNA inh HTS RFP: -3.6

What do the screens show for `COc1ccc(NC(=O)Nc2cccc3c2O[C@@H](CN(C)C(=O)Nc2ccc4c(c2)OCO4)[C@H](C)CN([C@H](C)CO)C3=O)cc1`?
rRNA inh HTS: -3; FGF22 binding: inactive; rRNA inh HTS OD600: 1; rRNA inh HTS RFP: 0.5

Results for CCCC#Cc1cnc2c(c1)C(=O)N([C@@H](C)CO)C[C@@H](C)[C@@H](CN(C)C(=O)Nc1ccc(OC)cc1)O2 ?
rRNA inh HTS: -1; FGF22 binding: inactive; rRNA inh HTS OD600: 4; rRNA inh HTS RFP: -1.4

Five compounds picked at random from the list so far, as already listed:
What do the screens show for `CN1C(=O)c2cc(NS(C)(=O)=O)ccc2OC[C@@H]2O[C@@H](CC(=O)N3CCOCC3)CC[C@@H]21`?
rRNA inh HTS: 3; FGF22 binding: inactive; rRNA inh HTS OD600: 6; rRNA inh HTS RFP: -1.8

What do the screens show for `COc1ccc(NC(=O)Nc2cccc3c2O[C@@H](CN(C)C(=O)Nc2ccc4c(c2)OCO4)[C@H](C)CN([C@H](C)CO)C3=O)cc1`?
rRNA inh HTS: -3; FGF22 binding: inactive; rRNA inh HTS OD600: 1; rRNA inh HTS RFP: 0.5

What do the screens show for `CCCNC(=O)Nc1ccc2c(c1)C(=O)N(C)C[C@@H](OC)[C@@H](C)CN(C(=O)C1CCC1)[C@H](C)CO2`?
rRNA inh HTS: 0; FGF22 binding: inactive; rRNA inh HTS OD600: 3; rRNA inh HTS RFP: -2.1

Results for CCCC#Cc1cnc2c(c1)C(=O)N([C@@H](C)CO)C[C@@H](C)[C@@H](CN(C)C(=O)Nc1ccc(OC)cc1)O2 ?
rRNA inh HTS: -1; FGF22 binding: inactive; rRNA inh HTS OD600: 4; rRNA inh HTS RFP: -1.4

Results for COc1ccc(S(=O)(=O)N(C)C[C@H]2OCCCC[C@H](C)Oc3ccc(NC(=O)CCC(F)(F)F)cc3C(=O)N([C@@H](C)CO)C[C@H]2C)cc1 ?
rRNA inh HTS: 0; FGF22 binding: inactive; rRNA inh HTS OD600: -5; rRNA inh HTS RFP: 0.9
